Source: PubChem
NPYLR7 agonist: activates Aedes aegypti NPYLR7 receptor; activation, % at 10 µM; 270,000 tested, 0.15% active; AID 1259423; HEK293T NPYLR7/Galpha15, GCaMP6s calcium fluorescence; in the data active = activation above about 40%;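 also: 0% = vehicle and 100% = reference agonist at the receptor; some compounds past the cut are filed as inactive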
NPYLR7 agonist max-min: also measured in NPYLR7 agonist; calls as there; activation, %; measured here: Max-Min RFU normalised activation; some inactives read as strong as hits;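 span of the calcium signal over five minutes; 0% = vehicle and 100% = native peptide agonist; compound fluorescence can raise it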
An asterisk follows results filed as active; & = joins results of further samples. An excerpt; the hit share may differ from the screen's.

SMILES | NPYLR7 agonist | NPYLR7 agonist max-min
NC[C@@H]1O[C@H](O[C@@H]2[C@@H](CO)OC(O[C@@H]3[C@@H](O)[C@H](N)C[C@H](N)[C@H]3OC3O[C@H](CN)[C@@H](O)[C@H](O)[C@H]3N)[C@@H]2O)[C@H](N)[C@@H](O)[C@@H]1O (stereo partly drawn) | -10&-4 | -13&-9
CC(C)(C)c1ccc(C(=O)Nc2nnc(SCc3cccc(Cl)c3F)s2)cc1 | -2 | 7
CC(C)(C)CC(C)(C)Nc1c(-c2cccc(F)c2)nc2ccccn12 | -5 | 2
Oc1cccc2ccc(N3CCOCCOCCN(c4ccc5cccc(O)c5n4)CCOCCOCC3)nc12 | -7 | -12
Cc1cc(I)ccc1Nc1c(C(=O)NOCC2CC2)cc(F)c(F)c1F | -15 | -18
Cn1cccc(NC(=O)C2(c3ccc(Cl)cc3)CCC2)c1=O | 3 | 1
Cc1c(C(=O)NCC2(O)CCC3(CC2)OCCO3)sc2ccc(F)cc12 | -8 | -7
N#Cc1c(Cl)nsc1NCc1cccc(C(=O)N2CCCCC2)c1 | 8 | 7
Cc1ccc(C)c(Cc2c(C)nc(-c3ccccc3)nc2N2CCN(C(=O)c3ccccc3Cl)CC2)c1 | 17 | 21
COc1ccc(OC)c(-c2nc3ccc(Br)cn3c2NC2CCCCC2)c1 | -4 | -4
CCc1nc(-c2nccn2CCCn2ccnc2)c(C)[nH]1 | -4 | -7
CCC(CO)(CO)NCc1csc(-c2cccs2)n1 | 4 | 2
CCOC(=O)c1[nH]c(COC(=O)Cc2ccsc2)c(C(=O)OCC)c1C | 3 | -1
Cc1cn2c3c(=O)[nH]c(=O)n(C)c3nc2n1CC(C)C | 5 | 1
C=Cc1ccc(Cn2c(C)c(C(=O)NCc3ccc([N+](=O)[O-])cc3)sc2=O)cc1 | -2 | -1
Cc1cccn2c(=O)c(C=Nc3cccc(Cl)c3)c(NCc3ccco3)nc12 | -3 | -6
O=C(CSCC(=O)N1CCN(S(=O)(=O)c2ccc(F)cc2)CC1)Nc1ccccc1F | 3 | 8
CCOC(=O)c1c(SCC(=O)c2ccc(Cl)cc2)nc(=O)[nH]c1C | 6 | 8
O=C(c1ccc(Oc2ccccc2)o1)N1CC(c2cccnc2)C1 | 0 | 2
CCCN1CCC(Cc2noc([C@H]3[C@@H]4C=C[C@@]5(CN(C)C(=O)[C@@H]35)O4)n2)CC1 | -2 | -5
N#Cc1cccc(C(=O)N2CCOC(COc3cccc(C(F)(F)F)c3)C2)c1 (stereo not drawn) | 4 | 0
CN(c1cccc(O)c1)S(=O)(=O)c1cc(Cl)sc1Cl | 2 | 1
Clc1ccccc1CNCc1ccc(C2OCCO2)cc1 | 1 | -1
CC(C)N1CCN(C(=O)c2cc(NC(=O)c3ccccc3)cc3ncn(C4CCCC4)c23)CC1 | 38 | 21
COc1cccc(-c2cc(CNC(=O)c3cc4n(n3)CCCN(C)C4)on2)c1 | 8 | 6
COc1cccc(Cn2c(C(=O)N3CCN(C(=O)NC4CCCCC4)C(C)C3)cc3ccsc32)c1 (stereo not drawn) | 27 | 22
COc1cccc(NC(=O)Nc2ccc(N3CCC(C)CC3)c(C(=O)NCc3ccccc3)c2)c1 | -3 | 8
Cn1cc(CCC(=O)NCc2nnc(-c3ccc(Cl)cc3)o2)cn1 | 0 | -7
N[C@@H]1CC[C@@H](NS(=O)(=O)c2c(Cl)nc3sccn23)C1 | 3 | 1
Cc1cc(C)c(S(=O)(=O)NCCCC(=O)O)cc1N(C)S(=O)(=O)c1ccccc1 | -10 | -16
O=C(COc1ccccc1C(=O)NC1CCSCC1)Nc1ccccc1F | 6 | 3
CCOC(=O)c1c(NC(=O)c2ccc(OC)cc2)sc(C(=O)Nc2ccccc2F)c1C | -3 | -6
O=C(NCCc1nc(-c2ccccn2)no1)c1ccc2ncsc2c1 | 2 | -1
Cn1nc(C(=O)Nc2nc(-c3ccc(F)c(F)c3)cs2)cc1C1CC1 | 6 | 5
CC(C)CNC(=O)C1(C)CCCCCN1Cc1ccccc1-c1ccccc1 (stereo not drawn) | 0 | -1
O=C(CC12CC3CC(CC(Br)(C3)C1)C2)NCC1CCCO1 (stereo not drawn) | 8 | 6
CCOc1ccccc1-c1nc(CN2CCCCC2COC)c(C)o1 (stereo not drawn) | 15 | 2
Cc1ncsc1C(=O)OCC(C#N)Cc1ccc(F)cc1 (stereo not drawn) | -2 | -4
COc1ccc2sc(C(=O)NCC(F)(F)C(F)(F)C(F)(F)F)c(Cl)c2c1 | 1 | 1
CCCC(=O)Nc1cc(CCc2cc(OC)cc(OC)c2)[nH]n1 | -3 | -5
Cc1[nH]c2ccccc2c1C1(O)C(=O)N(CCc2ccccc2)c2ccccc21 (stereo not drawn) | 3 | 0
CC(C)C(CNc1ccc2nccn2n1)N1CCOCC1 (stereo not drawn) | -3 | -3
CC(C(=O)Nc1ccc(C(F)(F)F)cc1)N1CCN(c2ccc([N+](=O)[O-])c3cnccc23)CC1 (stereo not drawn) | 9 | 11
c1cc2[nH]onc2c2c3c(nc12)CCCC3 | 10 | 9
CN(CC(=O)Nc1cc(-c2cc(Cl)cc(Cl)c2)[nH]n1)S(C)(=O)=O | 0 | 24
Cc1ccc(OCc2cc(C(=O)N3CCCC3c3nc4ccccc4s3)no2)cn1 (stereo not drawn) | 6&-1 | 3&-3
CC1CN(S(=O)(=O)c2ccc(S(N)(=O)=O)cc2)CC(C)O1 (stereo not drawn) | 5 | 3
CCNc1cc(NCCNC(=O)Nc2ccc(OC)cc2C)nc(C)n1 | -1 | -2
Cc1nc(COc2ccccc2/C=C/C(=O)N2CCCCCCC2)cs1 | -1 | -2
C#CCN1CCN(C(=O)C2CSc3ccccc32)CC1 (stereo not drawn) | 2 | 7
CC(C)Nc1ccc(C(=O)N(C)C(c2ccccc2)c2ccccc2)cn1 | -5 | -8
CCOC(=O)c1nn(-c2ccccc2)c(=O)c2c(NC(=O)Cc3ccc(OCC)cc3)scc12 | 3 | -1
Cn1cc(-c2ccc3ncc(-c4cccs4)n3n2)cn1 | -7 | -10
C#CCn1c(=NC(=O)c2ccc(OC)c(OC)c2)sc2cccc(OC)c21 | 5 | 5
CCCCN(CC(=O)N(CCc1c[nH]c2ccccc12)Cc1ccc(OC)cc1)C(=O)Nc1ccc(C)c(C)c1 | 19 | 21
CC(C)c1nccn1Cc1nc2ccccc2c(=O)[nH]1 | 1 | -3
O=c1cc(CN2CCc3ccccc32)c2cc3c(cc2o1)CCC3 | 2 | 0
O=C1CC2(CCN(C(=O)c3ccc(=O)n(Cc4ccccc4)c3)CC2)Oc2ccccc21 | -5 | -9
Cc1ccc(NC(=O)N(CC(=O)N(Cc2cccn2Cc2ccc(Br)cc2)C2CCCCC2)C(C)C)cc1 | -5 | -1
Cc1cc(C(=O)Cn2cc(S(=O)(=O)N3CCCC3)ccc2=O)c(C)n1C1CC1 | -1 | 4

Another view of part of the listing above.
Structure	NPYLR7 agonist	NPYLR7 agonist max-min
CCOC(=O)c1nn(-c2ccccc2)c(=O)c2c(NC(=O)Cc3ccc(OCC)cc3)scc12	3	-1
Cn1cc(-c2ccc3ncc(-c4cccs4)n3n2)cn1	-7	-10
C#CCn1c(=NC(=O)c2ccc(OC)c(OC)c2)sc2cccc(OC)c21	5	5
CCCCN(CC(=O)N(CCc1c[nH]c2ccccc12)Cc1ccc(OC)cc1)C(=O)Nc1ccc(C)c(C)c1	19	21
CC(C)c1nccn1Cc1nc2ccccc2c(=O)[nH]1	1	-3
O=c1cc(CN2CCc3ccccc32)c2cc3c(cc2o1)CCC3	2	0
O=C1CC2(CCN(C(=O)c3ccc(=O)n(Cc4ccccc4)c3)CC2)Oc2ccccc21	-5	-9

Continuation:
SMILES | NPYLR7 agonist | NPYLR7 agonist max-min
CCN(CC)C(=O)Oc1ccc2c(ccn2Cc2cccc(C(F)(F)F)c2)c1-c1ccc(OC)cc1 | 28 | 33
COC(=O)c1ccc(NC(=O)c2cn(-c3ccccc3)nn2)s1 | -1 | -1
C#CCNC(=O)c1cc(N2CCN(c3cccc(C(F)(F)F)c3)CC2)nc2ccccc12 | 5 | 3
CCN(CC)c1ccc(NC(=S)NC(C)C)cc1 | 1 | -2
CC(=O)Nc1ccc(Nc2nnc(Cc3ccc(C)cc3)c(=O)[nH]2)cc1 | 9 | 3
Cc1ccc(S(=O)(=O)Nc2cccc3cccnc23)c(C)c1 | 2 | -1
CC(C)CCC(=O)N1CCC(N2CCC(C(=O)NCc3ccccn3)CC2)CC1 | 4 | 6
CCOC(=O)c1c(NC(=O)c2ccno2)c(-c2cccc(F)c2)cn1C | 7 | 4
CCN(CC)CCNc1ncnc2sc3c(c12)CCC(C)C3 (stereo not drawn) | 1 | -4
Cc1nnc(-c2cccc(NC(=O)C3CCCCN3C(=O)c3cccs3)c2)s1 (stereo not drawn) | 5 | 2
Cn1cnc2c1c(=O)n(CC(=O)NC13CC4CC(CC(C4)C1)C3)c(=O)n2C | 29 | 23
N#Cc1c(NC(=O)Cn2ncc(Cl)c(Cl)c2=O)sc2c1CCC2 | 5 | 1
CCCc1cc(-c2ccnc3[nH]ccc23)nc(C)n1 | 12 | 6
COC(=O)CSc1nc2scc(-c3ccc(F)cc3)c2c(=O)[nH]1 | 1 | 18
O=C(NCC1CCCO1)c1ccc(-c2cc(-c3ccc(Cl)cc3Cl)[nH]n2)cc1 (stereo not drawn) | -3 | 0
CN(C)c1nc(N)nc(CSc2nnnn2-c2ccc(F)cc2)n1 | 0 | -2
CC(NC(=O)CSCc1ccccc1Cl)c1nncn1C (stereo not drawn) | 4 | -4
C=CCOCC(O)CN(CCN1CCOCC1)Cc1ccc(C)o1 (stereo not drawn) | 1 | 8
CCN(CC)C(=O)CSc1nc2ccccc2c(=O)n1-c1cc(C)ccn1 | -7 | 20
CC(=O)c1cccc(-n2c(CCC(=O)O)ccc2-c2ccc(C)cc2)c1 | -10 | -15
Cc1n[nH]c(C)c1Sc1ccccc1NC(=O)CC1NC(=O)NC1=O (stereo not drawn) | -2 | -3
O=C(CNS(=O)(=O)c1cc(F)cc(F)c1)NC1CC1 | 4 | 0
CN(C)c1nc(N)nc(CSCc2ccc(F)cc2Cl)n1 | -10 | -11
Cc1cc(-c2ccccc2)nc2c1C(=O)CC(C)(C)C2 | -5 | -5

Part of the list above in another layout:
Second line of a record – NPYLR7 agonist | NPYLR7 agonist max-min
> CN(C)c1nc(N)nc(CSCc2ccc(F)cc2Cl)n1
→ -10 | -11
> Cc1cc(-c2ccccc2)nc2c1C(=O)CC(C)(C)C2
→ -5 | -5

New compounds follow.
SMILES | NPYLR7 agonist | NPYLR7 agonist max-min
CCC(=O)Nc1ccc(-n2nc(OCC(C)C)nc2-c2ccccc2F)cc1 | -4 | -3
CC1C(C)S(=O)CCN1C(=O)Cc1ccc(Br)cc1 (stereo not drawn) | 3 | 4
CC(=O)C(C)n1c(=O)c2c(nc3n(-c4ccccc4)c(C)cn23)n(C)c1=O (stereo not drawn) | 11 | 11
CC(NC(=O)c1ccc(=O)[nH]c1)c1nc(C(C)(C)C)cs1 (stereo not drawn) | -5 | -5
Cc1ccc(S(=O)(=O)Nc2ccc(Nc3ccc(-n4ccc(C)n4)nn3)cc2)c(C)c1 | -3 | -10
COC(=O)c1[nH]ncc1CN(C)CC1Cc2ccccc2CN1C (stereo not drawn) | 6 | 5
COc1ccccc1OCC(=O)N=Nc1c(O)[nH]c2c(Br)cc(C)cc12 | -4 | -7
Cc1nn(Cc2cc(=O)n3ccsc3n2)c(C)c1[N+](=O)[O-] | -1 | 3
COc1ccc(Cl)cc1NC(=O)N1CCCC(CO)(Cc2ccccc2C)C1 (stereo not drawn) | 8 | 11
Cc1nc2cc(C(F)(F)F)ccc2n1C1CCN(C(=O)C(C)(C)C)CC1 | 2 | -2
Cc1ccc(NC(=O)CC(=O)NCCc2sccc2C)cc1 | 13 | 10
CC(C)N(Cc1cn(C)nc1-c1cccc(Cl)c1)Cc1nccn1C | -2 | -7

Grouped by structure, the entries above containing a cyano group
SMILES | NPYLR7 agonist | NPYLR7 agonist max-min
N#Cc1c(Cl)nsc1NCc1cccc(C(=O)N2CCCCC2)c1 | 8 | 7
N#Cc1cccc(C(=O)N2CCOC(COc3cccc(C(F)(F)F)c3)C2)c1 (stereo not drawn) | 4 | 0
Cc1ncsc1C(=O)OCC(C#N)Cc1ccc(F)cc1 (stereo not drawn) | -2 | -4
N#Cc1c(NC(=O)Cn2ncc(Cl)c(Cl)c2=O)sc2c1CCC2 | 5 | 1

Continuation.
SMILES | NPYLR7 agonist | NPYLR7 agonist max-min
CCn1nnnc1-c1ccc(OC)c(S(=O)(=O)NCCc2ccccc2)c1 | 3 | 2
Cc1ccccc1CNc1nncc(-c2ccccc2)n1 | -1 | -2
CCOC(=O)[C@@H](NC(=O)CC(C)n1cccc1)C(C)(C)C (stereo partly drawn) | 4 | -11
Cc1cccc(-c2c(-c3ccccc3)ncn2CCc2cn[nH]c2)c1C | -4 | -5
COc1ccccc1C1C2=C(CC(C)(C)CC2=O)OC2(O)CC(C)(C)CC(=O)C12 (stereo not drawn) | -2 | -2
CC1=CC(=NNC(=O)c2cccc(S(=O)(=O)N3CCOCC3)c2)CC1 | 3 | 3
CC(C)=CC(=O)NCC(NC(=O)C=C(C)C)C1CC1 (stereo not drawn) | 3 | 4
O=C(O)C1COC2(CCN(C(=O)c3cccs3)CC2)N1C(=O)c1ccco1 (stereo not drawn) | 0 | 13
COc1cccc(-c2noc(-c3ccc(NCCSC)nc3)n2)c1OC | 19 | 13
COc1ccc2[nH]c3c(c2c1)CCN(C(=O)CCCOc1ccccc1)C3c1ccc(COC(C)=O)o1 (stereo not drawn) | 11 | -3
O=C(Nc1ccc(O)cc1)c1c(O)c2ccccc2[nH]c1=O | -4 | -11
Cc1nn(C)c2ncc(C(=O)N3CCCN(Cc4cc(=O)c(OCc5ccc(C(F)(F)F)cc5)co4)CC3)c(Cl)c12 | 26 | 8
CN(Cc1cscn1)C(=O)CCc1ccc(Br)cc1F | 29 | 23
CCOC(=O)Cc1csc(NC(=O)/C=C/c2ccc(C(C)C)cc2)n1 | 6 | 12
COc1ccc(C(=O)N(Cc2ccccc2)C2CCC(NC(=O)C3CCN(C(=O)CCCl)CC3)CC2)cc1 (stereo not drawn) | 29 | 30
CNc1ccc(S(C)(=O)=O)cc1 | -2 | -3
